Source: PubChem (The Scripps Research Institute Molecular Screening Center)
OX1R antag: antagonists of human orexin 1 receptor (OX1R) | inhibition, % at 6.6 µM | OX1R-expressing cells, FRET antagonist read-out | 330,000 compounds, 1.8% hits | Orexin/Hypocretin receptor type 1 (Homo sapiens), O43613 | AID 485270, 2010; in the data active = inhibition mostly above about 38%, no sharp cut-off; inactive = mostly below about 40%;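 also: 0% = agonist challenge alone and 100% = reference antagonist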
Target sequence (O43613 whole entry, looked up): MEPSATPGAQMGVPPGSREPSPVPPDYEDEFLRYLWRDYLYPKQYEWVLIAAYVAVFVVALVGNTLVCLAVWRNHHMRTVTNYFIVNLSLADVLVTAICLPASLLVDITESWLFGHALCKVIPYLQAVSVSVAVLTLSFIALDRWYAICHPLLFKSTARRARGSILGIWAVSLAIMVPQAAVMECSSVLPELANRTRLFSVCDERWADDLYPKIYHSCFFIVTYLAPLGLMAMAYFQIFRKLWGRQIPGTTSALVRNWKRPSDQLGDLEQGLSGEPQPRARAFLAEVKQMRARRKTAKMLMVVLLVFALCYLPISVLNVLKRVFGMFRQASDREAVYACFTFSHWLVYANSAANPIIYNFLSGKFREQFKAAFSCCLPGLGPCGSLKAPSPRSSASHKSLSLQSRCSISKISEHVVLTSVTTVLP
* = called active by the depositor; & = joins results of further samples. These rows are one share of the data, and most or all hits are left out here.

OX1R antag,SMILES
15,CCOc1ccc(S(=O)(=O)N(C)c2ccc(OCC(=O)NCC3CCCO3)cc2)cc1 (stereo not drawn)
0,COc1cccc2sc(N(CCCN(C)C)C(=O)c3sc4ccccc4c3Cl)nc12
26,Cc1nn2cnc3sc4c(c3c2nc1=O)CCCC4
12,Cn1c(CNC(=O)c2ccco2)nnc1SCC(=O)N1CCN(c2ccccc2)CC1
11,COc1ccc(-n2c(=O)c3c4c(sc3n(Cc3cccc(F)c3)c2=O)CN(C(C)=O)CC4)c(OC)c1
18,Cn1c(N)c(C(=O)COC(=O)CNS(=O)(=O)c2ccc(Cl)c(Cl)c2)c(=O)n(C)c1=O
1,CCN(CC)Cc1c(CC(C)C)oc(C)c1C(=O)O
8,C=C(C)CSc1nnc(CCNC(=O)OC(C)(C)C)o1
6,CCn1c(CNc2ccc(F)cc2)nnc1SCC#N
-4,CN1CCN(Cc2c(O)ccc3c2oc(=O)c2ccccc23)CC1
6,COc1ccc(S(=O)(=O)N2CCOCC2)cc1OC
8,COC(=O)c1cc(OC)c(OC)cc1NC(=O)c1ccccc1C
1,Cc1cccc(NC(=O)c2ccc3c(c2)CCN3S(C)(=O)=O)c1C
25,Fc1ccccc1CN1CCCCCCC1
8,Cc1ccccc1C(=O)NN1CCOCC1
18,O=C(CNc1cc(S(=O)(=O)N2CCOCC2)ccc1N1CCCC1)NCc1ccco1
23,COc1cccc(CC(=O)N2CCN(c3ccccc3[N+](=O)[O-])CC2)c1
11,COCCNC(=S)N(CCO)Cc1cc2cc3c(cc2[nH]c1=O)OCO3
1,COc1ccc(NC(=O)c2ccccc2-c2ccccc2C(=O)O)cc1
3,COc1ccc(CNC(=O)COC(=O)/C=C/c2cccc(Br)c2)cc1OC
11,CCOCCCn1c(=S)[nH]c2cc(C(=O)NCCCN(CC)CC)ccc2c1=O
31,COC(=O)c1c(-c2cccs2)csc1NC(=O)CN1CCOCC1
5,CCN(C(=O)COC(=O)C1CCN(S(=O)(=O)c2ccc3c(c2)OCCO3)CC1)C1CCS(=O)(=O)C1 (stereo not drawn)
19,CCOC(=O)c1ccc(N2C(=O)CC(N3CCN(C(=O)c4ccco4)CC3)C2=O)cc1 (stereo not drawn)
5,CC1(C)CC(=O)C2=C(C1)c1c(ccc3ccccc13)NC2c1ccc(OCC(=O)O)cc1 (stereo not drawn)
35,COc1cc2[nH]c(=O)n(Cc3ccccc3Cl)c(=O)c2cc1OC
10,O=C(Nc1nnc(SCc2ccccn2)s1)C1CC(=O)N(c2ccc(F)cc2)C1 (stereo not drawn)
19,COCC1CCCN(Cc2cn[nH]c2-c2cc3ccccc3o2)C1 (stereo not drawn)
13,Cc1ccc(-c2nonc2NC(=O)c2ccco2)cc1
14,COc1ccccc1CN(Cc1cccnc1)S(=O)(=O)c1ccc(-n2cnnn2)c(OC)c1
41,C=CCN(C(=O)c1csnn1)C(C(=O)NC1CCCCC1)c1ccccc1F (stereo not drawn)
2,O=S1(=O)N=C2CCCN2C(c2ccc(F)cc2)N1 (stereo not drawn)
3,Cc1cc(C)n(C(=O)CN2C(=O)c3ccccc3C2=O)n1
13,COc1ccc(NC2CCCN(C(=O)CCc3cccc(F)c3)C2)cc1 (stereo not drawn)
13,c1ccc(C2=NCCCN2)cc1
15,Cc1ccccc1NC(=O)Cc1nc(COC(=O)CCc2ccccc2)cs1
-3,Cc1ccc(NC(=O)Nc2cccc(C(F)(F)F)c2)nc1
5,O=C(COc1ccccc1Cl)N1CCCC1
3,COc1cccc2c1c(NC(=O)c1cc(C)on1)nn2C
3,O=c1c2cc3c(cc2[nH]c(=S)n1CCN1CCOCC1)OCO3
41,COc1ccc(N(CC(=O)NCc2ccc3c(c2)OCO3)S(=O)(=O)c2ccccc2[N+](=O)[O-])c(OC)c1
0,CC(OC(=O)c1ccc(Cl)c(S(N)(=O)=O)c1)C(=O)NCC1CCCCC1 (stereo not drawn)
7,CCn1ncc(Br)c1C(=O)Nc1cc(C)cc(C)c1
16,CCOC(=O)c1oc2ccccc2c1NC(=O)CN1CCN(C)CC1
-3,O=C1OC(c2ccc(F)cc2)=N/C1=C\c1ccc(Br)o1
-2,Cc1ccc(S(=O)(=O)CCC(=O)NCCc2ccc(Cl)cc2)cc1
9,COc1ccc(OC)c(NC(=O)c2ccc3c(c2)C(=O)N(CC2CCCO2)C3=O)c1 (stereo not drawn)
11,COc1cccc(C(=O)NCCS(=O)(=O)N2CCCCCC2)c1
15,COc1ccc(CNC(=O)C(=O)NCC2OCCN2S(=O)(=O)c2ccc(C)cc2)cc1 (stereo not drawn)
4,CC(Sc1nnc(C2CC2)n1C1CC1)C(=O)Nc1cccc(S(=O)(=O)N2CCOCC2)c1 (stereo not drawn)
5,Fc1ccc(Cn2nnnc2C(c2cccs2)N2CCCCCC2)cc1 (stereo not drawn)
15,O=c1cc(Cn2nnc(-c3ccc(Cl)cc3)n2)nc2sccn12
12,COC(=O)c1sc(S(=O)(=O)Nc2ccc(C)c(C)c2)c(C(=O)OC)c1C
4,CCC(C)NC(=O)c1cnn2c(C)c3c(nc12)CCCC3 (stereo not drawn)
2,CC(C)[C@H](NC(=O)N1CCC(Cc2ccccc2)CC1)C(=O)O
11,O=C(CCSc1ccccc1)N1CCOCC1

New compounds follow:
OX1R antag,SMILES
24,CN(C(=O)COC(=O)c1ccccc1C(=O)N(C)c1ccccc1)c1ccccc1
14,COc1cc(/C=N/NC(=O)c2ccncc2)ccc1OC(=O)c1ccccc1Cl
13,Cc1ccc(-c2csc3ncn(CC#N)c(=O)c23)cc1
4,CC(=O)c1cccc(N(CC(=O)Nc2ccc(F)cc2F)S(C)(=O)=O)c1
15,O=C(CCCn1cnc([N+](=O)[O-])n1)Nc1cccc2ccccc12
13,Cc1nn(CC(=O)N2CCOCC2)c(=O)c2c1sc1ccccc12
17,COc1ccc(NC(=O)C2CCCN2C(=O)NCc2ccccc2)cc1 (stereo not drawn)
4,O=C(CNC(=O)c1ccco1)Nc1cc(Cl)ccc1N1CCOCC1
13,N#Cc1c(-c2ccccc2)nc(SCc2ccc([N+](=O)[O-])cc2)[nH]c1=O
9,Cc1ccccc1Cc1n[nH]c(=S)n1N
13,O=C(COC(=O)/C=C/c1ccc([N+](=O)[O-])cc1)NCc1ccc2c(c1)OCO2
19,COc1ccc(/C=N/NC(=O)c2cccnc2)cc1CN1CCc2cc(OC)c(OC)cc2C1C (stereo not drawn)
31,COC(=O)C1CSC(C)(C)C(=O)N1 (stereo not drawn)
16,CCCCc1c(O)nc(SCCN(C)C)n(-c2ccccc2)c1=O
8,COc1ccc(-c2nnc(N)s2)cc1
1,COC(=O)c1ccc(OC(=O)c2cnccn2)cc1
4,Cc1c(Cl)cccc1NC(=O)CSc1nncn1-c1ccccn1
15,NS(=O)(=O)c1ccc(NC(=O)COC(=O)COc2ccccc2)cc1
1,Cn1cc(C(=O)N2CCc3ccccc3C2)c(=O)c2cc(S(=O)(=O)N3CCOCC3)ccc21
7,C[C@H](CO)N1C[C@H](C)[C@@H](CN(C)Cc2ccc(Cl)c(Cl)c2)Oc2ccc(NC(=O)Cn3cnnn3)cc2C1=O
11,CNC(=S)N(CCc1c(C)[nH]c2ccc(OC)cc12)Cc1ccco1
-7,CCCCNC(=S)N(C)/N=C/c1c(F)c(F)c(F)c(F)c1F
8,COc1ccc(C2Nc3ccccc3C(=O)N2c2ccccc2)cc1CN1CCOCC1 (stereo not drawn)
33,O=C(C/C(=N\NC(=O)c1ccccc1Br)C(F)(F)F)c1cccs1
29,CCOC(=O)Cn1c2c(c(=N)c3ccccc31)CCC2
9,COc1ccc2c(c1)c(C(=O)N/N=C/c1cn(C)c3ccccc13)c(C)n2C
7,CC(NC(=O)Nc1ccc(F)cc1F)c1ccc2c(c1)OCO2 (stereo not drawn)
12,COc1ccc(-c2noc(C(C)NS(=O)(=O)c3ccc(NC(C)=O)cc3)n2)cc1 (stereo not drawn)
5,CCCCN(C(=O)COC(=O)c1nc2nccc(C)n2n1)C1CCS(=O)(=O)C1 (stereo not drawn)
23,COC(=O)CCC(NC(=O)c1cc(-c2ccc3c(c2)OCCO3)oc1C)C(=O)OC (stereo not drawn)
15,CCn1nnnc1SCC(=O)N1c2ccccc2Sc2ccccc21
17,O=C(Nc1sc2c(c1C(=O)c1ccc(Cl)cc1)CCCC2)c1cccnc1
-4,O=C(CSc1n[nH]c(=O)n1-c1cccnc1)Nc1ccccc1
11,O=S(=O)(Cc1ccccc1)N1CCC(N2CCN(c3ccccc3)CC2)CC1
18,COc1ccc(/C(N)=N/OC(=O)COc2ccccc2Cl)cc1
10,Cc1cccc(C(=O)NCC(=O)NC(C)c2ccc(-n3ccnc3)cc2)c1 (stereo not drawn)
11,O=C(/C=C/c1ccccc1)NCCc1ccccc1
6,O=C(CN1c2ccccc2Sc2ccccc21)N/N=C/c1ccccc1
7,Cc1cccc(C(=O)N2CCC(n3nnc4cc(F)ccc43)CC2)c1
6,Cc1ccc(S(=O)(=O)Nc2nsc(N)n2)cc1
24,CC(=O)N1CCC(C(=O)c2ccc(Cl)cc2)CC1
32,Cc1ccc(-n2nnnc2CS(=O)(=O)c2ccccc2)c(C)c1
14,COc1ccc(C)cc1NC(=O)CSc1ccc(-c2cccnc2)nn1
0,O=S(=O)(c1ccc(Br)cc1)N1CCn2c(nc3ccccc32)C1
12,C=C1CCN([C@@H](CC(C)C)C(=O)Nc2nc3ccc(Cl)cc3s2)S(=O)(=O)c2ccccc21
7,COc1cc(NC(=O)c2cc([N+](=O)[O-])ccc2NC(=O)CNC2CCCCC2)cc(OC)c1
1,CCNc1nc(NCC)n2c(SCC(=O)Nc3ccccc3)nnc2n1
12,Cn1nc(C(=O)Nc2c(-c3ccccc3)nc3sccn23)c2ccccc2c1=O
18,COc1ccccc1N(CC(O)CN1C(=O)NC(C)(C)C1=O)S(=O)(=O)c1ccc(C)cc1 (stereo not drawn)
4,Clc1ccc(OCCCCCN2CCCC2)c(Br)c1
6,N#Cc1cc(-c2ccccc2)cnc1Cl
11,CCOC(=O)c1cc2ccccc2n1CC(=O)c1ccccc1
5,CCOC(=O)CC1=CC(C)(CC(=O)OCC)C(C#N)(C#N)C(N)=C1C#N (stereo not drawn)
0,O=C(C[n+]1cccc(O)c1)Nc1ccc(Br)cc1
32,COc1ccc(NC(=S)N/N=C/c2cccn2Cc2ccc(F)cc2Cl)cc1
7&12,CN(C)CCC(c1ccccc1)c1ccccn1 (stereo not drawn)

The listing continues.
OX1R antag,SMILES
3,CC(=O)Nc1ccc(S(=O)(=O)N2CCN(Cc3csc(C)n3)CC2)cc1
8,COc1ccc(C(=O)Cc2ccc(OC)c(OC)c2)cc1
4,O=C(OCc1ccccc1)c1ccc(Br)o1
13,CCC1Nc2ncnc(N3CCN(c4ccccc4)CC3)c2N(Cc2ccc(Cl)cc2)C1=O (stereo not drawn)
5,CCC(=O)N1c2ccccc2C(N(C(=O)CC)c2ccccc2)CC1C (stereo not drawn)
13,Cc1ccc(/C(O)=C2\C(=O)C(=O)N(c3cc(C)on3)C2c2cccc(Br)c2)cc1 (stereo not drawn)
6,CC1=C(C(=O)OCCOc2ccccc2)C(c2coc3ccccc3c2=O)C2=C(CCCC2=O)N1 (stereo not drawn)
11,CC1(C)C(=O)OC(c2cccn2-c2ccc([N+](=O)[O-])cc2)C2(CCCCC2)C1=O (stereo not drawn)
6,CC12CC3CC(C)(C1)CC(C(=O)NCc1ccncc1)(C3)C2
13,O=C(COC(=O)c1ccco1)NC1CCCCC1
21,Cc1c(OCc2ccccc2)cccc1OCc1ccccc1
2,CN1CCN(S(=O)(=O)CC2(C)C3CCC2(C)C(=O)C3Br)CC1 (stereo not drawn)
20,Cc1cc(=O)cc(C)n1-c1ccc(Cl)c(Cl)c1

Structures listed so far with a Cl atom:
OX1R antag,SMILES
0,COc1cccc2sc(N(CCCN(C)C)C(=O)c3sc4ccccc4c3Cl)nc12
18,Cn1c(N)c(C(=O)COC(=O)CNS(=O)(=O)c2ccc(Cl)c(Cl)c2)c(=O)n(C)c1=O
35,COc1cc2[nH]c(=O)n(Cc3ccccc3Cl)c(=O)c2cc1OC
5,O=C(COc1ccccc1Cl)N1CCCC1
0,CC(OC(=O)c1ccc(Cl)c(S(N)(=O)=O)c1)C(=O)NCC1CCCCC1 (stereo not drawn)
-2,Cc1ccc(S(=O)(=O)CCC(=O)NCCc2ccc(Cl)cc2)cc1
15,O=c1cc(Cn2nnc(-c3ccc(Cl)cc3)n2)nc2sccn12
14,COc1cc(/C=N/NC(=O)c2ccncc2)ccc1OC(=O)c1ccccc1Cl
4,O=C(CNC(=O)c1ccco1)Nc1cc(Cl)ccc1N1CCOCC1
4,Cc1c(Cl)cccc1NC(=O)CSc1nncn1-c1ccccn1
7,C[C@H](CO)N1C[C@H](C)[C@@H](CN(C)Cc2ccc(Cl)c(Cl)c2)Oc2ccc(NC(=O)Cn3cnnn3)cc2C1=O
17,O=C(Nc1sc2c(c1C(=O)c1ccc(Cl)cc1)CCCC2)c1cccnc1
18,COc1ccc(/C(N)=N/OC(=O)COc2ccccc2Cl)cc1
24,CC(=O)N1CCC(C(=O)c2ccc(Cl)cc2)CC1
12,C=C1CCN([C@@H](CC(C)C)C(=O)Nc2nc3ccc(Cl)cc3s2)S(=O)(=O)c2ccccc21
4,Clc1ccc(OCCCCCN2CCCC2)c(Br)c1
6,N#Cc1cc(-c2ccccc2)cnc1Cl
32,COc1ccc(NC(=S)N/N=C/c2cccn2Cc2ccc(F)cc2Cl)cc1
13,CCC1Nc2ncnc(N3CCN(c4ccccc4)CC3)c2N(Cc2ccc(Cl)cc2)C1=O (stereo not drawn)
20,Cc1cc(=O)cc(C)n1-c1ccc(Cl)c(Cl)c1
